# Source: PubChem BioAssay (National Center for Advancing Translational Sciences (NCATS))
# Rango-impB inh: prevents formation of the Rango-importin beta complex. 340,000 tested, 0.031% active. Rango CFP/YFP FRET sensor + importin beta, 45 min. Q14974. Potency, µM (titrated, usually from 92.2 µM), for inactives: at the highest dose inhibition of complex formation. AID 540263; active = rising FRET ratio curve, often small or poorly fitted; inconclusive = mostly compound fluorescence or quenching in the first reads; inactive = flat curves in all reads;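 note: potency is the fitted concentration of half-maximal effect; 0% = DMSO wells and 100% = buffer wells lacking importin beta; nearly all actives have a fitted effect of over 15% in size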
#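 FRET biosensor Rango (snurportin 1 IBB between N-terminal EYFP and C-terminal Cerulean), 50 nM in PBS/1 mM DTT/0.02% Tween-20/0.1% BSA, preincubated 5 min RT with compound; 0.125 microM importin beta added, 45 min RT, CFP/YFP FRET ratio read.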
# miR-21 FLuc: raises the signal of a miR-21 reporter; HeLa miR-21 FLuc reporter, luciferase, 48 h; Potency, µM (top dose mostly 38.3 µM), inactives show at the top dose reporter change, positive = more light; 340,000 tested, under 10 active; AID 2288; active = well fitted rising curve with a large enough effect; inconclusive = small, poorly fitted or top-dose-only effect; inactive = no such curve, though single readings can be large or run the other way;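 note: % of control where 0% means no effect; miR-21 action dims this reporter so a rising signal means less miR-21 action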
#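 Luminescence from a firefly luciferase reporter carrying a miR-21 binding site downstream, stably expressed under a CMV promoter in HeLa cells that make miR-21 endogenously, reports miRNA modulation after 48 h compound exposure up to approximately 40uM final.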
# Rango release inh: inhibition of RanGTP-driven Rango-importin beta dissociation; 340,000 tested, 0.071% active; AID 540253; O95149+P62826; Potency, µM (titrated, usually from 46.1 µM), inactives show at the top dose activity change, negative = inhibition; Biochemical FRET Rango-importin beta, RanGTP-induced dissociation; active means falling FRET ratio curve, often poorly fitted, with flat reads before Ran was added; inconclusive means other falling curves, or compound fluorescence or quenching; inactive means flat or rising ratio curve;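 note: potency is the fitted concentration of half-maximal effect; % of control where 0% means no effect; nearly all actives have a fitted effect of over 45% in size; -100% = wells without RanGTP and RCC1; the record marks most hits as doubtful in a second field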
#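 Compounds sat 5 min at room temperature with 0.1 uM Rango biosensor plus 0.25 uM importin beta, then FRET pre-read. RanGTP-RCC1 (0.6 uM Ran, 2mM GTP, 0.2 uM RCC1) added for 45 min, and the CFP/YFP post-read measured blocked complex dissociation.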
# GLA inh pH 4.5: alpha-galactosidase A (human) inhibition, pH 4.5; P06280; purified enzyme, 4-MU-alpha-Gal fluorescence, pH 4.5; activity change, negative = inhibition, % at 105 µM; 230,000 tested, under 10 active; inconclusive = small, poorly fitted or top-dose-only inhibition, or a rising curve; inactive = flat fitted curve, though single readings scatter; no compound was filed as active;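 note: 0% = full activity with enzyme and -100% = basal without enzyme; dose as in the result columns while the protocol names 77 µM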
# Target sequence (P06280 whole entry, looked up): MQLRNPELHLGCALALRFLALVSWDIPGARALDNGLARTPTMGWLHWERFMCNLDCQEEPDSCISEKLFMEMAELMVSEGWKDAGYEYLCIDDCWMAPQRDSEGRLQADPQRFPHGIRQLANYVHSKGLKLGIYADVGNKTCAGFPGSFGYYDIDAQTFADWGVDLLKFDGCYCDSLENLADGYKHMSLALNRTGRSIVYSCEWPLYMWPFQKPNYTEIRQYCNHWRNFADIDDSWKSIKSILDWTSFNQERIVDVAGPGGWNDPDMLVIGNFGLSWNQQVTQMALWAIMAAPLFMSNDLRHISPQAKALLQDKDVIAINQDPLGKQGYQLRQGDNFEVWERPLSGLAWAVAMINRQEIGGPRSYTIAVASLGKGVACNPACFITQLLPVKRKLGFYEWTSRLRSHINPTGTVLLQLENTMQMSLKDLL
# Starred values were filed as active, the others as inactive; u = inconclusive; x = no result given.
SMILES,Rango-impB inh,miR-21 FLuc,Rango release inh,GLA inh pH 4.5
COc1ccc2oc(C(=O)OCC(=O)N(Cc3ccccc3)C(C)(C)C)c(C)c2c1,2.1%,0%,u,x
CC(=O)Nc1ccc(S(=O)(=O)NCC2CCC(C(=O)NCCC(C)C)CC2)cc1 (configuration not stated),-1.5%,1%,-4%,-4
COC1=Cc2c(ccc3ccc(=O)oc23)OC1(C)C,6.5%,-4%,-5%,-6
O=C(NCC(=O)N1CCN(c2ccccc2F)CC1)c1ccc(Br)o1,2.0%,x,0%,x
O=C(c1cc2ccccc2oc1=O)N(Cc1cccc(Br)c1)C1CCS(=O)(=O)C1 (configuration not stated),1.2%,-11%,23%,-12
COc1ccccc1OCC(=O)NC1CCCCCCC1,-1.3%,x,-6%,x
O=C(NCCc1ccccc1)c1ccccc1NC(=O)C1CCCO1 (configuration not stated),-8.3%,9%,-1%,-28
O=C(CCN1CCN(c2ccccc2)CC1)Nc1ccc(Cl)cc1,-0.9%,0%,6%,4
Cc1nn(CC(=O)N(C)C2CCC(C)CC2)c(C)c1S(=O)(=O)N(C)C (configuration not stated),0.2%,x,17%,x
Cc1ccc2c(c1)C(O)(CC(=O)/C=C/C=C/c1ccccc1)C(=O)N2 (configuration not stated),0.9%,-12%,-14%,x
O=C(COc1cccnc1[N+](=O)[O-])NCCc1ccc(F)cc1,0.0%,-2%,-24%,9
CC(C)CC(COCc1ccc(C(F)(F)F)cc1)N1CCN(C(=O)c2ccc(C(F)(F)F)cc2)CCC1=O (configuration not stated),0.4%,7%,-11%,-24
CCc1ccc(OC(=O)c2ccn(CC)n2)cc1,-1.9%,-25%,6%,-4
Cc1cccc(-n2c(SCC(=O)NC3CCCC3)nnc2-c2ccoc2C)c1,-2.0%,-1%,-9%,-1
COC(=O)[C@]1(Cc2ccccc2)N[C@H](CN(C)C(=O)Nc2ccc(OC)cc2)[C@@H]2C(=O)N(Cc3ccccc3)C(=O)[C@@H]21,-0.2%,x,22%,x
OC(COCCOc1ccc(Br)cc1)CN1CCCCC1 (configuration not stated),u,2%,1%,3
O=[N+]([O-])c1ccc(-c2cn3ccccc3n2)cc1,3.6%,x,-6%,x
O=C(Nc1ccccn1)C1CCN(S(=O)(=O)c2cccs2)CC1,-4.3%,1%,1%,2
COc1ccccc1C(=O)Nc1cccc(C(=O)c2ccccc2)c1,-3.0%,-13%,24%,x
Cc1nn(Cc2ccccc2Cl)c(C)c1C(=O)NCC(c1cccs1)N1CCOCC1 (configuration not stated),-1.8%,x,-3%,x
O=C(N/N=C/C(Cl)=C/c1ccc([N+](=O)[O-])cc1)C(=O)Nc1ccccc1C(=O)O,-7.7%,0%,-6%,-20
O=C(CCOc1ccccc1)Nc1ccccc1F,-0.1%,-33%,-15%,x
CC(=O)Nc1ccc(S(=O)(=O)N(C)CC(=O)OCCOc2cccc(C)c2)cc1,1.3%,0%,-17%,x
Cc1ccc2nc(NC(=O)CCn3cccc3)sc2c1,-0.1%,-37%,9%,-1
Nn1c(SCC(=O)Nc2ccc(S(N)(=O)=O)cc2)nnc1C(F)(F)F,-5.9%,0%,-10%,7

# Following part
SMILES,Rango-impB inh,miR-21 FLuc,Rango release inh,GLA inh pH 4.5
Cc1cc(N2CCOCC2)nc2ccc(NC(=O)CCC(=O)N3CCN(c4ccccc4)CC3)cc12,0.4%,-9%,2%,x
COc1ccc(N2CCN(C(=O)CSc3nc4cc(OC)c(OC)cc4cc3C#N)CC2)cc1,0.7%,6%,-24%,2
Cc1noc(C)c1C(=O)Nc1ccc(-c2nnc3n2CCCCC3)cc1,-1.2%,x,0%,x
O=C(NCCCc1ccccc1)c1c(O)nc2sccn2c1=O,-1.6%,x,-1%,x
CC(=O)c1ccc(S(=O)(=O)N2CCN(CC#N)CC2)cc1,3.7%,0%,12%,-27
Cc1cc2cc(C)c3nnc(SCC(=O)N4CCCc5ccccc54)n3c2cc1C,x,-9%,x,-1
COc1ccc(OCCNC(=O)c2ccccc2OCC(=O)N2CCCCC2)cc1,-3.0%,-9%,3%,5
COc1ccc(N2Cc3ccccc3C2=NC(=O)c2cncc(Br)c2)cc1,0.2%,-54%,-1%,-6
CCOc1ccc(NC(=O)CN(C)C(=O)CSCc2cccc(C)c2)cc1OCC,-3.0%,x,2%,x
Cc1c(NC(=O)CCC(=O)N2CCOCC2)c(=O)n(-c2ccccc2)n1C,2.2%,-4%,0%,-1
CCC(=NCCc1ccccc1)C1=C(O)CCC1=O,-2.7%,-5%,12%,-7
CC(C)NC(=O)C(=O)NCCCN1CCOCC1,-2.6%,0%,12%,-8
Cc1ccc(C(=O)/C=C/c2cc(Br)cc(Br)c2O)o1,1.9%,10%,-25%,x
N#Cc1ccc(C2=NC(C(F)(F)F)(C(F)(F)F)c3c(n(Cc4ccco4)c(=O)[nH]c3=O)N2)cc1,u,27%,6%,-9
CC(=O)c1coc2ccc(OCCN3CCCCC3)cc12,4.5%,-7%,-1%,8
O=C(Oc1ccc(/C=N/NC(=O)c2ccccn2)cc1)c1cccc(Br)c1,2.9%,-40%,u,x
CCCOc1ccc(C2C(C(=O)OC)=CN(CCOC)C=C2C(=O)OC)cc1,u,-4%,u,u
Cn1c(=O)c2[nH]c(-c3ccccc3O)nc2n(C)c1=O,x,1%,x,-3
Cc1cccc(OCC(=O)Nc2ccc(N3CCN(C(=O)c4ccccc4)CC3)cc2)c1,-5.6%,25%,3%,16
CCN(Cc1ccccc1)C(=O)c1cc(S(=O)(=O)N2CCOCC2)ccc1N1CCCC1,6.4%,x,9%,x
CCc1nc2c(c(=O)c3ccccc3n2C)c(=O)n1C1CCCCCC1,3.6%,28%,2%,-2
CC(NC(=O)c1ccc(F)cc1)C1CC2CCC1C2 (configuration not stated),0.1%,1%,8%,x
C=CCN(C(=O)c1csnn1)C(C(=O)NC1CCCCC1)c1ccc(F)cc1 (configuration not stated),-2.9%,1%,-15%,x
CCC(C)(C)NC(=O)C(c1ccc(OC)cc1)N(C(=O)CCC(=O)Nc1cc(C)on1)c1ccc2c(c1)OCO2 (configuration not stated),-4.3%,-8%,9%,x
Cc1ccc(S(=O)(=O)N(c2nc(N(C)C)nc(N(C)C)n2)n2cnnc2)cc1,0.4%,2%,-4%,3

# Profiles, quoted from the list. Order of values: Rango-impB inh	miR-21 FLuc	Rango release inh	GLA inh pH 4.5
# O=C(Oc1ccc(/C=N/NC(=O)c2ccccn2)cc1)c1cccc(Br)c1 in the list: 2.9%	-40%	u	x
# CCCOc1ccc(C2C(C(=O)OC)=CN(CCOC)C=C2C(=O)OC)cc1 in the list: u	-4%	u	u
# CC(C)NC(=O)C(=O)NCCCN1CCOCC1 in the list: -2.6%	0%	12%	-8

# (cont.)
SMILES,Rango-impB inh,miR-21 FLuc,Rango release inh,GLA inh pH 4.5
CCC(C)NC(=O)c1ccc2nc(-c3ccc(OC)c(OC)c3)c(-c3ccc(OC)c(OC)c3)nc2c1 (configuration not stated),u,-1%,u,x
O=C(Nc1ccc(Oc2cccnc2)cc1)c1cccc([N+](=O)[O-])c1,1.4%,-9%,1%,-6
Cc1ccc(NC(=O)CSCC(=O)NCCc2ccccn2)c(C)c1,-3.3%,0%,14%,-7
CN(Cc1ccccc1)C(=O)c1c[nH]c2ccc(S(=O)(=O)N3CCOCC3)cc2c1=O,0.7%,-10%,22%,25
COCCNC(=O)COc1ccc(Br)cc1Cl,-1.1%,-31%,-6%,2
N=c1c(C(=O)NCCN2CCOCC2)cc2c(=O)n3ccccc3nc2n1CCc1ccccc1,u,0%,u,x
O=C(Nc1ccc(Cl)cc1C(=O)NCCN1CCOCC1)c1ccc(Cl)cc1Cl,3.8%,-1%,-5%,-10
CCOC(=O)CCc1c(C)c2c(C)nn(-c3ccccc3)c2[nH]c1=O,-2.9%,-5%,14%,-5
Cc1ccc(C(=O)OC(C)C(=O)NC(C)CCc2ccccc2)o1 (configuration not stated),-0.5%,x,2%,x
Cc1nn(C)cc1C(C(=O)NC1CCCCC1)N(C(=O)Cc1cccs1)c1ccc(F)cc1 (configuration not stated),-0.3%,-4%,-5%,1
CCC(=O)N1c2ccc(S(=O)(=O)N3CCCC3)cc2CC1C (configuration not stated),-2.2%,-1%,-1%,x
CCC(C)N(C(=O)COc1ccc(Cl)c2cccnc12)C1CCS(=O)(=O)C1 (configuration not stated),7.0%,x,-14%,x
O=C(O)CCC(=O)Nc1cccc(C(=O)Nc2ccc(Br)cc2)c1,u,-21%,1%,2
CCOC(=O)C1(CCc2ccccc2)CCN(C(=O)[C@@H]2C[C@@H](C)NC(=S)N2)CC1,0.3%,-3%,-7%,-8
O=C1CCC(=O)N1OCCOc1ccc2c(c1)CCC2,-1.2%,-2%,18%,-11
COc1cc(NC(=O)c2cc(-n3cnnc3)ccc2Cl)cc(OC)c1,-0.7%,-2%,5%,2
COc1ccccc1NC(=O)Cc1nnc(SCC(=O)c2ccc(F)cc2)n1C,5.2%,-4%,10%,x
C[C@H](NC(=O)c1nc[nH]c1C(=O)N[C@@H](CCCCNC(=O)OC(C)(C)C)C(=O)OC(C)(C)C)C(=O)OC(C)(C)C,-0.5%,22%,2%,-20
O=C(NCc1ccccc1)C(c1cccnc1)N(C(=O)c1ccccn1)c1cccc(F)c1 (configuration not stated),0.4%,-1%,-6%,x
FC(F)(F)c1cccc(NCc2n[nH]c(=S)n2C2CCCCC2)c1,-0.9%,1%,6%,u
O=C(O)CCC(=O)N1N=C(c2c(-c3ccccc3)c3cc(Cl)ccc3[nH]c2=O)CC1c1cccs1 (configuration not stated),-1.0%,4%,-13%,-9
C=CCC1Cc2c(Br)cccc2C(CC=C)N1 (configuration not stated),u,-3%,-11%,6
CC(=O)c1cccc(NC(=S)NC(=O)c2ccc(C)cc2)c1,-4.3%,-53%,-2%,6
COC(=O)c1cccc(NC(=S)N2CCOCC2)c1,3.5%,-4%,17%,14
CCOC(=O)Cc1csc(NC(=O)c2ccc(N3CCOCC3)cc2[N+](=O)[O-])n1,0.0%,x,-18%,x

# (further entries)
SMILES,Rango-impB inh,miR-21 FLuc,Rango release inh,GLA inh pH 4.5
CC(C)n1c(Nn2cnnc2)nc2ccccc21,-0.4%,-3%,0%,5
O=C(O)c1ccc(Nc2ncnc3ccccc23)cc1,1.7%,-10%,-3%,x
C=CCc1c(C)[nH]c(=S)c(C#N)c1C,-2.0%,-18%,-2%,4
O=C(COc1ccccc1F)OCC(=O)c1ccc([N+](=O)[O-])cc1,1.1%,x,1%,x
CCCCOc1ccc(NC(=O)CSCC(=O)OCC)cc1,8.3%,12%,-11%,-1
CC1CCC(C(=O)NC(C(=O)NCc2ccccn2)C(C)C)CC1 (configuration not stated),u,2%,-15%,-1
O=C(CS(=O)CC(=O)N(CC(=O)NC1CCCC1)C1CCCCC1)Nc1ccc(F)cc1 (configuration not stated),-0.5%,-5%,1%,-3
CCOC(=O)c1ccc2nc3c(cc2c1)CCS3,-1.2%,-45%,0%,2
O=C1C=C(NCCNc2c(F)c(F)c(CO)c(F)c2F)CCC1,-0.4%,-7%,-9%,7
O=C(NCc1ccccc1)c1cc[n+](CC(=O)c2cccs2)cc1,u,-2%,u,-26
O=C(NCc1ccc2c(c1)OCO2)c1ccc2snnc2c1,-0.8%,-11%,-5%,-7
COc1cc(/C=C2/SC(=O)NC2=O)ccc1OCc1ccccc1,-4.6%,-27%,1%,x
O=C(NCc1ccncc1)c1cn(-c2ccccc2)nc1-c1cccnc1,-1.5%,-2%,-8%,7
COc1ccc(-c2cn3ccc4ccccc4c3n2)cc1,-4.3%,-50%,-4%,-4
Cc1nc2nc(SCc3ccccc3)[nH]n2c(=O)c1CCC(C)C,-0.6%,-1%,22%,x
COc1ccc(OC(=O)Cc2cccc3ccccc23)cc1,0.4%,-6%,2%,x
CCC(C)(C)NC(=O)C(c1ccncc1)N(C(=O)c1sc(C)nc1C)c1ccc(C)cc1 (configuration not stated),5.1%,-8%,-25%,-7
S=c1[nH]nc(-c2ccc3ccccc3n2)o1,-1.5%,-25%,-5%,-2
Cc1cc(C#N)c(C)n1-c1cc(C(F)(F)F)ccc1N1CCOCC1,-4.1%,0%,0%,-2

# Some of the compounds tested; the hit share may differ from the screen's.
